hNpr1 antagonist: Natriuretic polypeptide receptor (hNpr1) antagonism - Primary qHTS. Atrial natriuretic peptide receptor 1 (Homo sapiens), P16066. HEK293 hNpr1 GloSensor cGMP, ANP-stimulated luminescence. Potency, µM (top dose mostly 46.3 µM), inactives show at the top dose activity change, negative = inhibition, most hits filed as inhibitors. actives 1.6% (n = 76,000); active = well fitted inhibition curve with a large enough effect; inconclusive = small, poorly fitted or top-dose-only effect; inactive = no such curve, though single readings can be large or run the other way;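 further: nearly all actives have a fitted effect of over 60% in size; nearly all hits also lower the signal before the agonist is added; a reference antagonist and vehicle were the controls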
Target sequence (P16066 whole entry, looked up): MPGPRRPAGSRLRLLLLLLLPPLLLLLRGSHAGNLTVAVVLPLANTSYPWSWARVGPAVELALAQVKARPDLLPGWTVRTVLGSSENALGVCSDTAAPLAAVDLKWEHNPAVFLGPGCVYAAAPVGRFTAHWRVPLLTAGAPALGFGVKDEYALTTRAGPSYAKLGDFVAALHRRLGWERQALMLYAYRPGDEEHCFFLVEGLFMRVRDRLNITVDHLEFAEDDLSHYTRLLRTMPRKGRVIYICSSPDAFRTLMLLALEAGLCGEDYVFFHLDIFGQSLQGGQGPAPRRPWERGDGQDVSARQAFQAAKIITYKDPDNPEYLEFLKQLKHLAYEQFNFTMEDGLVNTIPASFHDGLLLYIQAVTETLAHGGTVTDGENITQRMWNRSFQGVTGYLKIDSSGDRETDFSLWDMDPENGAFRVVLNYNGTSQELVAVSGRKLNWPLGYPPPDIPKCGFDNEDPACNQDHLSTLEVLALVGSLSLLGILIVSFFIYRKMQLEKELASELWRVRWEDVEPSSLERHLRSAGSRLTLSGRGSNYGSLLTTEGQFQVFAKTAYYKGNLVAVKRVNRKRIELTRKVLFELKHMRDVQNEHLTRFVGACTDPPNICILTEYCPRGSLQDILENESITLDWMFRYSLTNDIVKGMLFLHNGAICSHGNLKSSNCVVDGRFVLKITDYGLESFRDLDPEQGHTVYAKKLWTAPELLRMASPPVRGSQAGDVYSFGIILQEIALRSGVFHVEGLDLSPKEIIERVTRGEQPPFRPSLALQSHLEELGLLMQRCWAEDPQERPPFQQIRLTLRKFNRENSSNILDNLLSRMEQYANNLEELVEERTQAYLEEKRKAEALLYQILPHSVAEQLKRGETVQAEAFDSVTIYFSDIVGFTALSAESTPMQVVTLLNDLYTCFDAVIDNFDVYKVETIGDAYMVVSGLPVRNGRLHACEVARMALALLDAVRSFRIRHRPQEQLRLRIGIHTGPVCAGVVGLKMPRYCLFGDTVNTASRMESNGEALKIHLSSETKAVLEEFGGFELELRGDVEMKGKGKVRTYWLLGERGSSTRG
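HEK293 cells stably expressing human Npr1 and cGMP GloSensor pGS-40F, loaded 2 h with 2% GloSensor reagent, given compound 30 min at room temperature. Luminescence read before and 20 min after 0.1 nM hNppA.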
* hit, by the source's call; [ ] = dose if it differs, or a comment. On the % scale 0 is the no-effect control and ±100 the full control effect; potency means the concentration at half of the fitted maximal effect. An excerpt (hit frequency here may not be typical).

`Cc1ccsc1C(=O)NC1CCc2nnc(C3CC3)n2CC1` (stereo unspecified) gave hNpr1 antagonist 1%.
For O=C1CO[C@H]2CCN(Cc3ccc4c(c3)CCO4)CC[C@@H]2N1c1ccccc1 the results were hNpr1 antagonist -14%[70.6 µM].
For CN1[C@@H](CCC(=O)N2CCc3ccccc32)CNC(=O)[C@@H]2[C@H]1CCN2Cc1ccc(O)cc1 the results were hNpr1 antagonist -1%.
`COc1ccccc1CC(=O)N1CCC(Cc2nc(-c3ccc(F)cc3)no2)CC1` gave hNpr1 antagonist 1.3µM*.
CN(Cc1nc2c(n1Cc1ccccc1)C(=O)N(CC1CCOCC1)CCN2)c1ccccc1 was read as hNpr1 antagonist 4%.
Screening O=C(C1CC1)N1CCC(c2nn(-c3ccc(Cl)cc3)c(=O)[nH]2)CC1 returned hNpr1 antagonist -3%[70.6 µM].
For O=C1CN(CC(=O)N2CCC3(CC2)OCCCC3O)C(=O)N1 (stereo unspecified) the results were hNpr1 antagonist 5%.
For CC(O)c1cc2n(n1)CCCN(C(=O)c1n[nH]c3c1COCC3)C2 (stereo unspecified) the results were hNpr1 antagonist -6%.
For CN(CC1CCOCC1)S(=O)(=O)Cc1ccccc1 the results were hNpr1 antagonist 0%.
`O=C(c1ccno1)N1C[C@@H]2OCC(=O)N(Cc3ccccn3)[C@@H]2C1` gave hNpr1 antagonist 3%[70.6 µM].
O=C(N1CC(Oc2cccc(-c3nc(-c4ccccc4)no3)c2)C1)C1(c2ccccc2)CC1 was read as hNpr1 antagonist 5%.
Screening O=C(CCSCc1ccccc1)N1C[C@@H](CN2CCOCC2)[C@@H](CO)C1 returned hNpr1 antagonist -2%.

Reprinted from the part before: 5 entries; new compounds follow.
For CC(O)c1cc2n(n1)CCCN(C(=O)c1n[nH]c3c1COCC3)C2 (stereo unspecified) the results were hNpr1 antagonist -6%.
For CN(CC1CCOCC1)S(=O)(=O)Cc1ccccc1 the results were hNpr1 antagonist 0%.
`O=C(c1ccno1)N1C[C@@H]2OCC(=O)N(Cc3ccccn3)[C@@H]2C1` gave hNpr1 antagonist 3%[70.6 µM].
O=C(N1CC(Oc2cccc(-c3nc(-c4ccccc4)no3)c2)C1)C1(c2ccccc2)CC1 was read as hNpr1 antagonist 5%.
Screening O=C(CCSCc1ccccc1)N1C[C@@H](CN2CCOCC2)[C@@H](CO)C1 returned hNpr1 antagonist -2%.
`O=c1cc(-c2ccccn2)oc2c(NCc3ccc(F)cc3)nccc12` gave hNpr1 antagonist 0%[70.6 µM].
For Cc1ccc(OCc2nc(C3CCCN3C(=O)C3CC3)no2)cc1 (stereo unspecified) the results were hNpr1 antagonist -4%.
`Cc1nc(-c2c3n(c(=O)n(CC(=O)NC4CCCCC4)c2=O)CCCC3)no1` gave hNpr1 antagonist -14%.
Screening Cn1cccc1CN1CCn2c(nnc2-c2ccccc2)C1 returned hNpr1 antagonist 0%[70.6 µM].
Screening CCC(=O)N1CCC(C(NC(=O)c2ccccc2C)C(=O)NCC(C)C)CC1 (stereo unspecified) returned hNpr1 antagonist 3%.
Screening COc1ccc(C(=O)Nc2ccc(C(O)[C@H]3COCC(=O)N3C)cc2)cc1 (stereo partly specified) returned hNpr1 antagonist -10%[70.6 µM].
`COc1ccccc1N1CCN(C[C@@H]2C=C(C)[C@H](Cc3nnc(-c4cncn4C)o3)C[C@H]2C(C)C)CC1` gave hNpr1 antagonist -14%.
Screening C=CCc1cc(C(=O)N2C[C@@H]3CCN(C)C[C@]3(C(=O)O)C2)ccc1OC returned hNpr1 antagonist 1%.
O=C1CCC(C(=O)N2CC(c3ncc4c(-c5ccc(F)cc5)nccn34)C2)N1 (stereo unspecified) was read as hNpr1 antagonist -9%[70.6 µM].
`O=C(CCc1c[nH]c2ccccc12)NC1CCN(C(=O)N2CC3CC(C2)[C@H]2CCCC(=O)N2C3)CC1` (stereo partly specified) gave hNpr1 antagonist 2%.
For CCc1nnc([C@@H]2CC(F)(F)CN2C(=O)COc2ccc(F)cc2)o1 the results were hNpr1 antagonist 1%.
`CCN(CC)C(=O)N1CC(Oc2ccccc2-c2nc(-c3cnccn3)no2)C1` gave hNpr1 antagonist -6%.
Screening CCCS(=O)(=O)N1CCCC(Cc2noc(-c3cnccn3)n2)C1 (stereo unspecified) returned hNpr1 antagonist 7%.
Screening O=C(c1ccc2cc[nH]c2c1)N1C[C@@H](CO)[C@H](c2nc(C3CC3)no2)C1 returned hNpr1 antagonist -1%.
C[C@H](N)C(=O)N1CCC(n2nccc2NC(=O)c2ccc3c(c2)OCO3)CC1 was read as hNpr1 antagonist 4%.
For O=C(NCc1cccc(Cl)c1)c1cnc2c(c1)N(C(=O)CCc1ccccc1)CCC2 the results were hNpr1 antagonist -18%[70.6 µM].
For Cc1noc(-c2cccn3c(CNC(=O)Cc4c[nH]c5ccccc45)nnc23)n1 the results were hNpr1 antagonist 10%.
CCCCN1CCN(C(=O)CCc2cc3ccc(C)cc3[nH]c2=O)CC1 was read as hNpr1 antagonist 0%.
Screening COc1ccc(CC(=O)N2CCC3(CC2)CC(O)CCO3)cc1OC (stereo unspecified) returned hNpr1 antagonist 7%.
Cc1nn(CCC(=O)N[C@H]2CC[C@H]2NC2CCCCC2)c(C)c1C was read as hNpr1 antagonist 4%.
C=CCC1(CO)CCCN(CCOc2ccc(C)cc2Cl)C1 (stereo unspecified) was read as hNpr1 antagonist -1%.
For Cc1ccc(-n2c(C3CCN(C(=O)c4ccc5ccccc5n4)CC3)n[nH]c2=O)cc1 the results were hNpr1 antagonist 0%.
O=C(NCc1ccccn1)[C@H]1CN(Cc2ccccc2)C[C@H]1C(=O)O was read as hNpr1 antagonist 2%.
Screening Cc1noc(C2CCCCCN2C(=O)C2CCCC2)n1 (stereo unspecified) returned hNpr1 antagonist -8%.

Sorted by length of the SMILES (descending): 6 of the compounds above.
`COc1ccccc1N1CCN(C[C@@H]2C=C(C)[C@H](Cc3nnc(-c4cncn4C)o3)C[C@H]2C(C)C)CC1` gave hNpr1 antagonist -14%.
`O=C(CCc1c[nH]c2ccccc12)NC1CCN(C(=O)N2CC3CC(C2)[C@H]2CCCC(=O)N2C3)CC1` (stereo partly specified) gave hNpr1 antagonist 2%.
`O=C(c1ccno1)N1C[C@@H]2OCC(=O)N(Cc3ccccn3)[C@@H]2C1` gave hNpr1 antagonist 3%[70.6 µM].
For Cc1ccc(OCc2nc(C3CCCN3C(=O)C3CC3)no2)cc1 (stereo unspecified) the results were hNpr1 antagonist -4%.
C=CCC1(CO)CCCN(CCOc2ccc(C)cc2Cl)C1 (stereo unspecified) was read as hNpr1 antagonist -1%.
For CN(CC1CCOCC1)S(=O)(=O)Cc1ccccc1 the results were hNpr1 antagonist 0%.

New compounds follow
`CNC(=O)[C@@H]1CN(C(=O)c2cc(C3CC3)[nH]n2)C[C@H]1c1n[nH]c(C)n1` gave hNpr1 antagonist 0%.
`Cc1ccc2nc3n(c2c1)[C@@H](CNS(=O)(=O)Cc1ccccc1)COC3` gave hNpr1 antagonist inconclusive.
For COc1ccc(Nc2ncc(-c3cccnc3)c3c2OCC3)cc1 the results were hNpr1 antagonist 12%[70.6 µM].
For Fc1cccc(CN2CCNc3cc(Nc4ccccc4)ncc3C2)c1 the results were hNpr1 antagonist -22%[70.6 µM].
For Cc1cccc(-n2nc(C)c(CCC(=O)N3CCOCC3)c2Oc2ccccc2C)c1 the results were hNpr1 antagonist -12%.
For COCC1CN(C)CC12CCN(C(=O)CCCc1ccccc1)CC2 (stereo unspecified) the results were hNpr1 antagonist 2%.
CC(C)(N)C(=O)N1CCCC(N2CCN(c3cccc(C(F)(F)F)c3)CC2)C1 (stereo unspecified) was read as hNpr1 antagonist 1%.
O=C(Cn1cccc1-c1nc(-c2ccc3c(c2)OCO3)no1)Nc1ccc2c(c1)OCCO2 was read as hNpr1 antagonist -7%.
Screening NC1(C(=O)NCc2nc(-c3cccc(F)c3)c(-c3ccccn3)[nH]2)CCC1 returned hNpr1 antagonist -10%.
Screening COc1ccc(C(=O)N2CCCC(c3nc(-c4cccnc4)no3)CCNC(=O)CC2)cc1F (stereo unspecified) returned hNpr1 antagonist 8%.
For O=C(NC1CC1)c1cccn2cncc12 the results were hNpr1 antagonist -3%[70.6 µM].
`O=C(CCc1nc2ccccc2s1)N1CCC(Cc2noc(-c3ccc(F)cc3)n2)C1` (stereo unspecified) gave hNpr1 antagonist 11µM*.
Screening COc1cc(C(=O)NC2CCN(c3cc(-c4cccs4)[nH]n3)CC2)cc(OC)c1OC returned hNpr1 antagonist -18%.
`O=C1NCCOCCCN(C(=O)C2(c3ccccc3)CC2)[C@H]2CCCC[C@@H]12` gave hNpr1 antagonist -7%.
COc1cc(C)ccc1C(=O)N1CCC(Cn2cc(C3CC3)nn2)CC1 was read as hNpr1 antagonist 9%.
For O=C(c1ccco1)N1CCC(n2cc(-c3nc(C4CC4)no3)nn2)C1 (stereo unspecified) the results were hNpr1 antagonist -3%.
Screening COc1ccc(-n2ccnc2CN2CCN(CC=C(C)C)C(CCO)C2)cc1 (stereo unspecified) returned hNpr1 antagonist 0%.
`CSCCC(=O)N[C@H]1CC[C@H]1NC1CCN(C(=O)c2cnccn2)CC1` gave hNpr1 antagonist 0%.
CN(Cc1cnn(-c2ccc(F)cc2)c1)c1cc(C2CC(O)C2)ncn1 (stereo unspecified) was read as hNpr1 antagonist inconclusive.
For CCOCCn1c(=O)[nH]c2cc(C(=O)N3CCS(=O)(=O)CC3)ccc21 the results were hNpr1 antagonist 9%.
For Cc1cccc(OCC(=O)c2ccc3c(c2)N(C(C)C(=O)NCC2CCCO2)C(=O)CO3)c1C (stereo unspecified) the results were hNpr1 antagonist -3%.
`Cc1ccc(NC(=O)N2CCCC(c3nnc(CN(C)C)n3C)C2)cc1C` (stereo unspecified) gave hNpr1 antagonist 3%.
`N#Cc1ccccc1NC(=O)c1cc2n(n1)CC(c1ccc(Br)cc1)OC2` (stereo unspecified) gave hNpr1 antagonist inconclusive.
For Cn1cnc(S(=O)(=O)NCCc2noc(-c3ccccc3)n2)c1 the results were hNpr1 antagonist -5%.
`O=C(C1CCC1)N1CCn2c(nnc2[C@@H]2C[C@@H](O)CN2Cc2ccccc2)C1` gave hNpr1 antagonist 2%.
Screening Cc1nc(-c2ccccc2)n(CC(=O)NCc2ccc(F)cc2)c(=O)c1CCO returned hNpr1 antagonist 5%.
`CN(C)CCN(C)c1ccc(-c2nc(-c3ccccc3F)no2)cn1` gave hNpr1 antagonist 5%.
For CC(C)NC(=O)C1CCC(=O)N1C1CCN(C(=O)c2ccc(C(C)C)cc2)CC1 (stereo unspecified) the results were hNpr1 antagonist 4%.
Screening O=C1Nc2ccc(-c3ccccc3)cc2C(=O)N2CCN(C(=O)c3cccc(F)c3)C[C@H]12 returned hNpr1 antagonist -22%[70.6 µM].
For CC(C)(O)CCc1cccc(C(=O)NCCCc2nc3ccccc3o2)c1 the results were hNpr1 antagonist 1%.
O=C1NCCCCCCN(C(=O)CN2CCCC2=O)[C@H]2C[C@H](c3nc(Cc4ccccc4)no3)C[C@@H]12 was read as hNpr1 antagonist -1%.
Screening O=C(c1ccncc1)N1CCCC(n2cc(-c3nc(C4CC4)no3)nn2)C1 (stereo unspecified) returned hNpr1 antagonist -1%.
CC(=O)c1ccc(NC(=O)O[C@@H]2CO[C@H]3[C@@H]2OC[C@@H]3NC(=O)Nc2ccccc2)cc1 was read as hNpr1 antagonist -11%[70.6 µM].
COc1cccc(CC(=O)N2CC(F)(F)C[C@H]2c2nc(C)no2)c1 was read as hNpr1 antagonist -9%.
For CC1=C[C@@H](CN(C)CCC#N)[C@H](C(C)C)C[C@H]1Cc1nnc(-c2ccc(C)cc2)o1 the results were hNpr1 antagonist inconclusive.
For COCc1noc([C@@H]2CC(F)(F)CN2)n1 the results were hNpr1 antagonist 1%.
For Cc1ccc(C(=O)N(C)Cc2ccc(-c3ccccc3)cc2)cc1 the results were hNpr1 antagonist -12%[70.6 µM].
Cc1ccc(Cc2ccccc2C(=O)N2C[C@@H](C)[C@@](C)(O)C2)cc1 was read as hNpr1 antagonist -2%.
For COc1ccccc1C(=O)NCCC1CCN(C(=O)Nc2cc(F)ccc2F)CC1 the results were hNpr1 antagonist 3%.
CC(C)CNC(=O)CC(c1ccc(F)cc1F)c1c[nH]c2ccccc12 (stereo unspecified) was read as hNpr1 antagonist -18%.
Screening O=C(c1cc(Cl)ccc1F)N1CCCC2(C1)NC(=O)N(Cc1ccccc1)C2=O (stereo unspecified) returned hNpr1 antagonist -2%.
For O=C(CC1CCCC1)NC1CCN(c2cnn(CC3CC3)c(=O)c2)CC1 the results were hNpr1 antagonist -17%.
For Cc1cc(C(=O)N2CCCN(Cc3ccncc3)C(c3ccccc3)CC(=O)NCC2)n(C)n1 (stereo unspecified) the results were hNpr1 antagonist 9%.
CCNC(=O)[C@@H]1C[C@H](NC(=O)c2ccc(=O)n(C)c2)CN1Cc1ccoc1 was read as hNpr1 antagonist 7%.
Screening CN(C(=O)C1(N)CC1)C1CCCN(CCc2ccccc2)C1 (stereo unspecified) returned hNpr1 antagonist 7%.
`COCCNC(=O)Cc1cccn1-c1ccc(F)cc1` gave hNpr1 antagonist 4%.
For COCCNC(=O)C(NC(=O)c1cccc(OC)c1)C1CCN(C(=O)c2ccc(C)cc2)CC1 (stereo unspecified) the results were hNpr1 antagonist -4%.
For COc1ccc(C(=O)N[C@H](C)c2c(-c3ccc(F)cc3)noc2C(=O)O)cc1 the results were hNpr1 antagonist 4%[70.6 µM].
`COc1ccc(CC(=O)NC2CCN(c3nnc4cccc(C)n34)CC2)cc1` gave hNpr1 antagonist 2%.
Screening COc1cccc(CNC(=O)C2(c3ccc(NS(C)(=O)=O)cc3)CCCCC2)c1 returned hNpr1 antagonist 4%.

Compound activity (PubChem)
